Bioassay records as filed in PubChem.
MgrA-DNA mod: S. aureus MgrA-DNA binding modulation; fluorescence polarization; inhibition, %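 (about 10 µg/mL by stock and volumes)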; actives 0.13% (n = 84,000); AID 602314;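 active means above 50% in either of two replicates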;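 further: 0% = protein plus DNA without compound and 100% = DNA alone without protein; higher means less MgrA bound to DNA so lower polarization; one replicate is shown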
Sa helicase inh: S. aureus DNA helicase inhibition. actives 0.05% (n = 120,000). inhibition, %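 (tested at about 80 µM)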. purified S. aureus helicase, fluorescence unwinding assay; about half of the hits fall short of the stated cut. AID 485395;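 active means both duplicates at 50% or more, or one of them with a favoured structure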;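 further: 0% = mean of negative control wells and 100% = mean of positive control wells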
Numbers without * were called inactive; nt = not tested or not shown.

Order of values – MgrA-DNA mod, Sa helicase inh
- Cc1[nH]nc2c1C(CCc1ccccc1)C(C#N)=C(N)O2 (configuration not stated)
  nt, -15
- CCCCn1c(CCNC=O)nc2ccccc21
  1.1, 6
- Cc1cc(NC(=O)CSc2ccc3ccccc3c2)no1
  7.3, -23
- CCCCCCN1C(=O)c2ccc(Br)cc2C1=O
  -3.3, 8
- COC(=O)COc1ccc(CSc2nc3ccccc3c(=O)n2C)cc1
  0.8, 12
- CCOC(=O)C1CCN(Cc2c[nH]c3ccccc23)CC1
  -1.4, nt
- O=C(c1cccc2ccccc12)N1CCc2ccccc21
  0.3, -14
- Cc1cc(NC(=O)Cn2cc(S(=O)(=O)N(Cc3ccccc3)Cc3ccccc3)ccc2=O)no1
  nt, -24
- Cc1ccn(C(=O)c2ccc(Br)cc2)n1
  -1.4, 22
- O=c1cc(-c2ccc3ccccc3c2)[nH][nH]1
  0.0, 14
- CSc1nc(-c2ccccc2)nc2[nH]ccc(=O)c12
  nt, -20
- COCCNC(=O)c1ccc2c(c1)CCN2S(=O)(=O)c1ccc(C)cc1
  nt, 3
- O=C(CN1C(=O)CCSc2ccccc21)N1CCCCCC1
  nt, 9
- COc1cc(NC(=O)c2ccccc2)c(OC)cc1NC(=O)CN1CCCCC1
  -0.4, 16
- CN1C2=C(C(=O)CCC2)C(c2ccc(O)c(Cl)c2)C2=C1CCCC2=O
  nt, 10
- Cc1cc2c(cc1C)CSC(c1cc(Cl)cc(Cl)c1O)SC2
  -0.7, nt
- N#CCCn1cc(C(=O)N2CCCCC2)c(-c2ccccc2)n1
  nt, -6
- CCN1CCN(c2oc(COc3ccccc3C)nc2C#N)CC1
  -1.1, 15
- O=C(NCCN1C(=O)S/C(=C\c2cccnc2)C1=O)c1cc(S(=O)(=O)N2CCOCC2)ccc1F
  nt, 36
- O=C(O)Cn1cc(C(=O)C2CC2)c2ccccc21
  -5.3, 8

An excerpt of these results, tab-delimited.
smiles	MgrA-DNA mod	Sa helicase inh
O=C(O)Cn1cc(C(=O)C2CC2)c2ccccc21	-5.3	8
N#CCCn1cc(C(=O)N2CCCCC2)c(-c2ccccc2)n1	nt	-6

Following part
Order of values – MgrA-DNA mod, Sa helicase inh
- CC1=C(C(=O)OCCOc2ccccc2)C(c2ccc(O)cc2)C2=C(CC(c3ccccc3)CC2=O)N1 (configuration not stated)
  -1.9, nt
- O=C(Nc1cccc2ccccc12)OC1CCS(=O)(=O)C1 (configuration not stated)
  -2.6, 12
- O=c1oc(-c2cccs2)nc2ccccc12
  nt, -16
- O=c1c2ccccc2nnn1CSc1nnc(COc2ccccc2Cl)o1
  nt, 5
- FC(F)(F)c1cc(-c2cccs2)nc2cc(-c3ccco3)nn12
  -2.1, nt
- O=C(O)CN(CC(=O)Nc1ccc2c(c1)OCCCO2)Cc1ccccc1
  nt, -16
- CC(Cc1c[nH]c2ccccc12)Nc1ccc2ccccc2n1 (configuration not stated)
  nt, 15
- CC(C(=O)Oc1ccc(C#N)cc1)N1C(=O)c2ccccc2C1=O (configuration not stated)
  nt, 5
- CCc1ccc(C2NC(=O)NC3=C2C(=O)CCC3)cc1 (configuration not stated)
  1.5, 7
- OCC(O)CN=Cc1c(O)[nH]c2ccccc12 (configuration not stated)
  1.1, 12
- CCOC(=O)c1cnn2c(C(F)F)cc(-c3ccc(C)cc3)nc12
  nt, 2
- O=S(=O)(NCC1CCCCC1)c1ccc(-n2cnnn2)cc1
  nt, -13
- CSc1nsc(SC)c1C(=O)Nc1ccc(Cl)cc1
  -0.8, nt
- COC(=O)c1ccc(CSc2nc3c([nH]c4ccccc43)c(=O)n2C)o1
  nt, 6
- CN(C)c1ccc(/C=C2/N=C(c3ccc(Cl)cc3)OC2=O)cc1
  -6.3, nt
- CC(C)P(=O)(c1c(F)c(F)nc(F)c1F)C(C)C
  4.0, -7
- Cc1cc(C)c(C#N)c(SCC(=O)NCCc2c[nH]c3ccccc23)n1
  nt, -6
- O=C(C1CC1)N1N=C2/C(=C/c3ccc4c(c3)OCO4)CCCC2C1c1ccc2c(c1)OCO2 (configuration not stated)
  nt, 17
- Cc1ccnc(SCC(=O)C(C)(C)C)n1
  -0.9, -12
- CCc1[nH]nc(C(=O)O)c1C
  1.0, -4
- COc1cc(Cl)ccc1S(=O)(=O)N1CCN(c2ccc(C)c(C)c2)CC1
  nt, -15
- CC(C)(C)C1CCC(OC(=O)c2cccnc2)CC1 (configuration not stated)
  nt, -4
- O=C(NCCSc1ccc(Cl)cc1)c1ccco1
  0.3, 7
- Cn1cccc1Cc1nnc(SCC(=O)N2CCCC2)n1CCc1ccccc1
  nt, -1
- O=C(CSc1nc2ccsc2c(=O)n1CC1CCC(C(=O)O)CC1)Nc1nccs1 (configuration not stated)
  nt, 5
- O=C(CSc1nnc(-c2ccc(F)cc2)o1)N1CCCC2CCCCC21 (configuration not stated)
  nt, -1
- CCOC(=O)c1ccc(S(=O)(=O)N(C)C)cc1
  3.8, 4
- Cc1ccc(C)c(-n2c(Cc3cc(=O)[nH]c(=O)[nH]3)nnc2SCC(=O)Nc2nnc(C)s2)c1
  nt, 5
- O=C(NCCCN1CCCC1)C1CCN(c2nc3cccnc3s2)CC1
  nt, 17
- COC(=O)c1ccccc1CSC(=N)N
  2.0, nt
- O=S(=O)(c1cc(Cl)c(Cl)s1)N1CCN(c2cc(C(F)(F)F)ccn2)CC1
  1.8, nt
- COc1nccc(C(F)(F)F)c1C(=O)Nc1ccc(Cl)cc1Cl
  -0.2, nt
- Cc1ccc(S(=O)(=O)/N=C(/c2ccccc2)N(C)c2ccc(O)cc2)cc1
  -1.5, 7
- O=S(=O)(/C=C/c1ccccc1)N1CCN(c2nc(-c3cccnc3)nc3ccccc23)CC1
  nt, -9
- C(=N\NC1=NCCCCC1)/c1ccc(N2CCOCC2)cc1
  nt, 4
- COC(=O)c1sc(N(C)C)c(C#N)c1-c1ccccc1
  -0.2, nt
- CCOC(=O)c1nc2ccccc2c(=O)n1/N=C/c1cc(Cl)cc(Cl)c1O
  0.7, nt
- CC(/C=N/N1CCN(c2ccccc2)CC1)=C\c1ccco1
  -1.1, 12
- CCOc1ccccc1Cn1c(=O)oc2ccccc21
  nt, 6
- CCN=c1sc(C(=O)NCCc2ccccc2)cc(=O)n1CC
  -4.0, 10
- O=c1[nH]c(C(F)(F)F)nc2c1cnn2Cc1ccccc1
  nt, -3
- C#CCOC(=O)Nc1ccc(OC)nc1
  nt, -5
- Cc1ccc2c(c1)c1c(n2C)C(NC(N)=O)CCC1 (configuration not stated)
  nt, -1
- Cn1cccc1Cc1nnc2n1CCCCC2
  nt, -7
- COCc1cc(=O)[nH]c(Nc2nc3ccccc3o2)n1
  -3.8, 7
- O=C(Cn1nc(-c2ccc(Cl)cc2)c2ccccc2c1=O)N1CCCC1
  -3.0, 20
- O=C(O)c1cccn1Cc1ccccc1Cl
  nt, 5
- Cc1ccc(S(=O)(=O)c2cnc3ccccc3c2N2CCC3(CC2)OCCO3)cc1C
  nt, 14
- COc1ccc(-c2nc(C#N)c(N3CC(C)OC(C)C3)o2)cc1 (configuration not stated)
  nt, 13
- O=C(CCc1nc2cccnc2n1Cc1cccs1)NCc1ccccc1
  13, -5
- COc1ccnc(Nc2ccc(C)cc2)n1
  nt, 1
- Cc1cc(C(F)(F)F)n[nH]1
  nt, -11
- COc1nc2c([nH]1)C(c1ccc(OC(C)C)c(OC)c1)C(C#N)=C(N)O2 (configuration not stated)
  0.9, 13
- CCOc1ccc(C(C)C)cc1S(=O)(=O)Nc1ccc(Cl)cn1
  3.0, 6
- O=c1c(-c2ccccc2)coc2c(CN3CCCCC3)c(O)ccc12
  -2.3, 13
- COc1ccc(C(c2c(O)[nH]c(=O)[nH]c2=O)N(Cc2ccccc2)C(C)C)c(OC)c1OC (configuration not stated)
  nt, 11
- COc1ccccc1NC(=O)CSC1=NC(c2ccccc2)CC(=O)N1 (configuration not stated)
  nt, 13
- C=CCC(CC=C)(NS(=O)(=O)c1ccc(C)cc1)c1ccccc1
  -0.7, 6
- Cc1ccc2ncnc(NC3CCCCC3)c2c1
  nt, 18
- O=C(CN1CCN(C2c3ccccc3-c3ccccc32)CC1)c1ccc2c(c1)OCO2
  nt, 13

Continuation.
Order of values – MgrA-DNA mod, Sa helicase inh
- CCCSc1sc(C(=O)OC)c(-c2cccs2)c1C#N
  -1.0, nt
- CC1(C)OC(=O)C(=Cc2ccoc2)C(=O)O1
  1.8, nt
- COc1cc2c(cc1NC(=O)C(C)N1CCc3cc(OC)c(OC)cc3C1)oc1ccccc12 (configuration not stated)
  nt, -9
- O=C(C1CCN(S(=O)(=O)c2ccccc2F)CC1)N(CC1CCCO1)c1nc2ccccc2s1 (configuration not stated)
  nt, -1
- O=C(CSc1nnc(-c2ccco2)n1Cc1ccccc1)c1ccccc1
  nt, -5
- COc1ccc(-c2nnc(SCc3ccc(F)cc3)n2-c2ccccc2)cc1
  -2.6, 9
- Cc1cc(Sc2ccc(C(=O)O)cc2[N+](=O)[O-])c(C)cc1Cl
  -2.6, nt
- CC(=O)Nc1ccc(C(C)(C)C)cc1Br
  -0.7, nt
- CSC(=NC(C)(C)C)N/N=C/c1cc(Cl)cc(Cl)c1O
  nt, -6
- COC(=O)C1=C(C)NC(=O)CC1c1ccccc1C (configuration not stated)
  -2.1, nt
- O=C(NCCc1ccc(Cl)cc1)c1ccc(-n2cnnn2)cc1
  nt, 0
- O=S1(=O)CCC(S(=O)(=O)N2CCCC2)C1 (configuration not stated)
  nt, 15
- O=C1CC(c2ccccc2)Sc2nc3ccccc3n21 (configuration not stated)
  -1.1, 1
- Cc1cc(C)c(NC(=O)CNC2CC(C)(C)NC(C)(C)C2)c(C)c1
  0.6, 6
- CCOC(=O)C1=C(C)Nc2ccccc2[S@]1=O
  -1.2, nt
- O=C(CCCCl)N1CCCC1=O
  nt, 18
- CC(CN1CCCC1)OC(=O)c1ccc(F)cc1 (configuration not stated)
  -0.1, 9
- COc1cc(S(=O)(=O)n2ccc(C)n2)ccc1Cl
  nt, -17
- COc1ccccc1NC(=O)NCc1nc(N)n(C(=O)Nc2ccccc2OC)n1
  -1.2, 10
- Cc1ccc(NCn2c(=O)oc3ccccc32)cc1
  -1.5, 6
- CCOC(=O)C1CCCN(C(=O)Cc2c(C(=O)O)[nH]c3ccccc23)C1 (configuration not stated)
  0.2, -5
- Nc1nncn1C(=O)COc1ccc(Cl)cc1
  -0.1, 15
- Cc1nc2ccccc2c(=O)n1NC(=O)c1cc(-c2ccccc2)nc2ccccc12
  -1.6, nt
- O=C(CC(Sc1ccc(Br)cc1)C(=O)O)c1ccc(Cl)cc1 (configuration not stated)
  1.1, 12
- CC(C)c1ccc(NC(=O)N2CCC(N)CC2)cc1
  nt, -8
- CCN(CC)C(=S)Nc1ccc(OC)cc1
  -7.5, 10
- COc1ccccc1C(=O)N=c1sc2cc(Cl)ccc2n1C
  nt, -1
- O=c1oc2ccccc2n1CCOc1ccccc1
  nt, 4
- C1CCCN(c2nc3nonc3nc2N2CCCCCC2)CC1
  -0.9, 13
- CCCCC(CC)CN=C1NS(=O)(=O)c2ccccc21 (configuration not stated)
  -2.2, 0
- Cc1nc2scc(C)n2c(=O)c1S(=O)(=O)N1CCC(C)CC1
  nt, -24
- N#Cc1c(NC(=O)COC(=O)c2cccs2)sc2c1CCCCC2
  nt, 15
- COc1ccc(-n2c(SCC(=O)NCCc3ccccc3)nc3c(c2=O)SCC3)cc1
  nt, 4
- Cc1ccc2nc(-c3ccccn3)oc2c1
  nt, -25
- COc1ccc(-c2cc(=O)oc3cc4occ(-c5cccc(OC)c5)c4cc23)cc1
  1.9, 7
- O=C(c1nsnc1-c1ccccc1O)N1CCCC1
  8.8, 2
- Cc1nn(C)c(C)c1NC(=O)/C=C/c1ccco1
  1.5, 3
- O=C(CSc1ccc(C(F)(F)F)cn1)c1cccc(C(F)(F)F)c1
  -1.0, nt
- CSc1c(C#N)c(N)nc(SCc2ccc(F)c(F)c2)c1C#N
  -2.5, nt
- CC(C)CCNC(=O)Nc1ccc2c(c1)N(C)C(=O)CS2
  nt, 8

Entries of single compounds, looked up by structure. Order of screens: MgrA-DNA mod	Sa helicase inh
C#CCOC(=O)Nc1ccc(OC)nc1 is listed as nt	-5
O=C(NCCCN1CCCC1)C1CCN(c2nc3cccnc3s2)CC1 is listed as nt	17
CC(C(=O)Oc1ccc(C#N)cc1)N1C(=O)c2ccccc2C1=O (configuration not stated) is listed as nt	5
O=C(CCc1nc2cccnc2n1Cc1cccs1)NCc1ccccc1 is listed as 13	-5
N#CCCn1cc(C(=O)N2CCCCC2)c(-c2ccccc2)n1 is listed as nt	-6

New compounds follow
Order of values – MgrA-DNA mod, Sa helicase inh
- COC(=O)CN(c1c(C)cccc1C)S(C)(=O)=O
  nt, -7
- CC(C)CCOc1ccc(C(=O)O)cc1
  -1.1, 8
- O=C(N/N=C/c1cc(Br)ccc1O)N/N=C/c1cc(Br)ccc1O
  0.2, nt
- Cc1ccc2c(c1)c1nnc(SCC(=O)Nc3ccc(N(C)C)cc3)nc1n2CC(=O)O
  -13, 13
- CCOC(=O)c1c(CSc2nc(C)ccc2C#N)oc2ccc(OC(C)=O)cc12
  0.4, -12
- Cc1ccc(O)c(C(=O)c2cc(C#N)c(=O)n(C3CCCCC3)c2)c1
  nt, -5
- Nc1c(C(=O)Nc2ccccc2)nnn1Cc1ccccc1
  nt, 0
- Cc1ccc(OCC(=O)Nc2sc3c(c2C#N)CC(C)(C)NC3(C)C)cc1
  -1.8, -3
- Cc1ccc(-n2nnc3c(SCC(=O)N4CCCC4)ncnc32)cc1
  -4.3, -1
- Nc1ccc(-c2cn3c(n2)SCC3)cc1
  0.4, nt
- Cc1nn(CC(=O)NN)c(C)c1Br
  0.6, nt
- Cc1cc(C)cc(NC(=O)c2c(C)noc2C)c1
  nt, 17

Some of the compounds tested (hit frequency here may not be typical).
